A488 fluor: compound autofluorescence in A488 spectral region. max dye equivalency, M. compound autofluorescence, A488 spectral region, dye equivalency; active compounds read high. AID 591. 0.1% of 59,000 active; active = above 10 nM dye equivalent; inconclusive = 1 to 10 nM; inactive = 1 nM or less; about half of its hits are not listed in these tables;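 note: highest value over a series up to 38 µM; compound alone in buffer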
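Autofluorescence read at ex 480/em 540 nm after 15 min RT in 100 mM Tris pH 8.0; compound signal normalized to A488 standard series on each plate, reported as dye-equivalent concentration at each test concentration.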
AID923: qHTS Assay for Allosteric/Competitive Inhibitors of Caspase-1: Spectroscopic Profiling in AFC Spectral Region. compound fluorescence, AFC spectral region (405/520 nm); almost no hit is shown here. Potency, µM (doses to about 57.5 µM), for the others: top-dose fluorescence increase, usual class: activators. 1.1% of 75,000 active; active = well fitted activation curve with a large enough effect; inconclusive = small, poorly fitted or top-dose-only effect;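 note: potency is the fitted concentration of half-maximal effect; 0% is about no effect; scaled to a free AFC standard on each plate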
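Compound autofluorescence profiled at 405 nm ex/520 nm em during kinetic caspase 1 run (50 nM enzyme, 5 uM Ac-WEHD-AFC, HEPES pH 7.5, 10 mM DTT). Titration up to 57 uM; baseline from regression intercept, normalized to AFC standard curve.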
Resorufin fluor: resorufin region autofluorescence; Compound fluorescence, resorufin region 547/598 nm, buffer; active compounds read high; max dye-equivalent concentration, M; 0.04% of 59,000 active; AID 588; active = above 10 nM dye equivalent; inconclusive = 1 to 10 nM; inactive = 1 nM or less; a few of its hits are not listed in these tables; note: highest value over a series up to 38 µM
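Dye-equivalent concentration values derive from comparing each well's 547/598 nm fluorescence against resorufin standards included on every plate. Incubation was 15 min at room temperature in 100 mM Tris, pH 8.0.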
A647 fluor: A647 region autofluorescence; 59,000 tested, under 10 active; AID 592; Compound fluorescence, A647 channel (570/671 nm), Tris buffer; max dye-equivalent concentration, M; active means above 1 µM dye equivalent; inconclusive means 0.1 to 1 µM; inactive means 0.1 µM or less;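 note: values scaled relative to a standard on each plate; highest value over a series up to 38 µM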
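Compounds pinned into 100 mM Tris pH 8.0, 15 min at room temperature, then read with 570 nm excitation/671 nm emission filters. Fluorescence normalized to an on-plate six-point Alexa 647 standard curve, giving dye-equivalent concentration per compound concentration.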
TSHR agonist: activates the human thyroid stimulating hormone receptor | P16473 | HEK293-CNG-TSHR cells (CNG channel as cAMP sensor), membrane potential dye, cAMP | Potency, µM (series often up to 57.1 µM), for the others: at the top dose activation, actives largely listed as activators | 0.48% of 73,000 active | AID 926; active = well fitted activation curve of enough size with the parental cells flat; inconclusive = any curve in the parental cells; inactive = parental cells flat and receptor cells flat or falling; note: potency is the fitted concentration of half-maximal effect; % of control where 0% means no effect; weak receptor curves with flat parental cells got no call and are not listed
Target sequence (P16473 whole entry, looked up): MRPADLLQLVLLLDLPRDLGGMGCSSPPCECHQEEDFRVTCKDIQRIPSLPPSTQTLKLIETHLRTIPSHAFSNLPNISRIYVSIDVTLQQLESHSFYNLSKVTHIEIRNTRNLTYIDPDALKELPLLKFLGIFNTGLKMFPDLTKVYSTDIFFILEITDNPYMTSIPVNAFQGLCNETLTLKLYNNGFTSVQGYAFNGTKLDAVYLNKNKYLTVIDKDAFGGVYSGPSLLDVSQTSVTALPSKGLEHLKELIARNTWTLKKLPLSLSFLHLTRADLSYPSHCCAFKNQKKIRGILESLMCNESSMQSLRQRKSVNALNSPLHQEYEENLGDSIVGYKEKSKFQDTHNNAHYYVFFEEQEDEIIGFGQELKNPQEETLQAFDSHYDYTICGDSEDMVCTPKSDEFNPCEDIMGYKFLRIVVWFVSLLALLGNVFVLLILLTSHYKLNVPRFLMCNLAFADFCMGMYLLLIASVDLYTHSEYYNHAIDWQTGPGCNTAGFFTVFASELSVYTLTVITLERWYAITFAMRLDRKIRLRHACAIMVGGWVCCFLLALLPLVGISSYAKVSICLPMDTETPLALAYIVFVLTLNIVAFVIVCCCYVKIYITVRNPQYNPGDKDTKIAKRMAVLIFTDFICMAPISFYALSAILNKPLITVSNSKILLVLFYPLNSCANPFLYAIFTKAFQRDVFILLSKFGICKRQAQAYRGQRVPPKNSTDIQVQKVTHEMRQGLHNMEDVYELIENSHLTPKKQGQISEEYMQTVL
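cAMP rise detected as CNG-channel membrane depolarization by fluorescent dye (emission 590 nm), 30 min after compound, following 60 min dye loading containing 100 uM RO 20-1724 at room temperature. Cells: TSHR/CNG HEK 293, with parental CNG HEK 293 as control.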
Active calls of the source: *; i = inactive; u = inconclusive; x = no result given; [ ] = another dose, or the depositor's remark. These rows are one share of the data (hit frequency here may not be typical).

SMILES	TSHR agonist	AID923	A488 fluor	A647 fluor	Resorufin fluor
CCOC(=O)N1CCN(S(=O)(=O)N(C)C)CC1	0%	-1.6%	i	1.7e-08	i
OC(COCc1ccccc1)CN1CCN(c2ccccc2)CC1 (stereo not drawn)	u	-0.1%	i	4.3e-09	i
C=C(C)Cn1c(CCCNC(=O)C(C)(C)C)nc2ccccc21	-2%[11.4 µM]	-1.1%	i	1e-09	i
CCCCSc1cc(C)nc2ncnn12	4%	1.9%	x	x	x
CC(Sc1nnc2ccccn12)C(=O)Nc1ccc(Cl)cn1 (stereo not drawn)	8%	-0.9%	i	1e-09	i
CCN1CCN(CC(=O)Nc2ccc3c(c2)OCO3)C(=O)C1=O	1%	0.0%	x	x	x
Cc1ccc(C2CC(c3cccc(C)c3)n3ncnc3N2)cc1 (stereo not drawn)	-6%	-3.6%	x	x	x
COc1cccc(OC)c1C(=O)Nc1ccc(NC(=O)c2ccco2)cc1	9%	0.2%	i	6.9e-09	i
c1ccc2c(c1)ncc1cccn12	0%	5.8%	x	x	x
CNc1nc(-c2ccc(N(C)C)cc2)nc2ccccc12	u	1.9%	i	1e-09	i
COC(=O)c1ccc(NC(=O)C2CCN(S(C)(=O)=O)CC2)cc1	u	-0.3%	i	1.9e-08	i
Cc1cnc(-c2nnc(N(C)C(=O)c3ccccn3)s2)cn1	-4%	-1.1%	i	8.9e-09	i
CC1(C)Cc2noc(N)c2C(C)(C)N1OC(=O)c1ccco1	-1%	1.3%	i	2.7e-09	i
CCOC(=O)C1=C(C)NC2=C(C(=O)CC(C)(C)C2)C1c1ccc2c(c1)CCCN2C (stereo not drawn)	9%	14%	i	4.8e-08	i
O=C(c1csc2c1CCCC2)n1cccn1	32µM*	1.4%	x	x	x
CCN(CC)c1ccc(N)cc1	-33%[inhibitor]	-0.6%	x	x	x
O=C1[C@H]2[C@@H](C(=O)N1c1cc(Cl)cc(Cl)c1)[C@]1(C(=O)Nc3ccccc31)N1CCC[C@@H]21	x	3.7%	i	1e-09	i
CC1(C)O[C@H]2O[C@@H]([C@H](O)CON3C(=O)c4ccccc4C3=O)[C@H](O)[C@H]2O1	1%[11.4 µM]	0.7%[11.5 µM]	x	x	x
N#Cc1c(N2CCOCC2)nc(-c2ccco2)c2c1CCCC2	x	x	i	7.4e-08	i
O=C(C1CCN(c2nnc(-n3cccc3)s2)CC1)N1CCN(c2cccc(C(F)(F)F)c2)CC1	u	-0.8%	i	6.9e-09	i
COc1ccc(OC)c(-c2cc(C(=O)NCc3cccs3)no2)c1	5%	-0.8%	i	1e-09	i
CCN(CC)S(=O)(=O)c1ccc2c(c1)c(=O)c(C(=O)NCCOC)cn2C	-3%	-0.4%	i	1e-09	i
Cc1coc(C)c1C(=O)CC1(O)C(=O)N(CCc2ccccc2)c2ccccc21 (stereo not drawn)	-2%	0.1%	i	3.9e-09	i
CCNc1nc(NC(C)C)nc(NS(=O)(=O)c2ccc(Cl)cc2)n1	4%	0.0%	i	9.9e-09	i
Cn1c(=O)c2cn(Cc3ccc(Cl)cc3)cc2n(C)c1=O	3%	-4.0%	i	1.5e-08	i
COc1ccc(CNC(=O)CSc2ncnc3nc[nH]c23)cc1	-1%	0.7%	i	1e-09	i
COCCn1c(COc2ccc(Cl)cc2)nnc1SCC(N)=O	6%[11.4 µM]	-1.4%	i	2.5e-09	i
c1ccc2c(c1)nnn2Cc1nnc2sc(-c3ccc4c(c3)OCCO4)nn12	25%	2.6%	i	3.3e-08	i
CC(C)(C)Nc1nc(C(N)=O)nc(N2CCOCC2)n1	6%	-0.8%	i	1.4e-08	i
CC(C)(c1cc(Br)c(OCC(Br)CBr)c(Br)c1)c1cc(Br)c(OCC(Br)CBr)c(Br)c1 (stereo not drawn)	0%	-0.8%	x	x	x
CCOc1ccc(OCC)c(NC(=O)CN2CCN(c3cccc(C)c3)CC2)c1	u	-0.8%	i	2.6e-08	i
O=[N+]([O-])c1ccc2c(N=Nc3ccc4ccccc4c3O)c(O)cc(S(=O)(=O)O)c2c1	u	2.3%[11.5 µM]	i	6.3e-08	i
COc1cccc(N(C(=O)Cn2nnc3ccccc32)C(C(=O)NCc2ccco2)c2cccnc2)c1 (stereo not drawn)	-3%	0.0%	i	2.1e-09	i
CCN=C1SC(C(=O)Nc2ccc(Cl)c(Cl)c2)CC(=O)N1CC (stereo not drawn)	x	x	i	1.6e-08	i
COc1ccc(C)cc1NC(=O)C1CCCN1S(=O)(=O)c1ccc2c(c1)CCC(=O)N2 (stereo not drawn)	-8%	0.2%	x	x	x
Cc1cccc(NC(=O)C2CCN(S(=O)(=O)c3cccs3)CC2)n1	11%	1.6%	i	2.2e-09	i
Cn1c(SCc2ccc(F)cc2)nnc1-c1cccs1	15%	0.6%	i	1e-09	i
c1ccc(CN2C3=NCCCN3c3ccccc32)cc1	u	-0.5%	i	1e-09	i
COc1cccc(C2=NOC(C(=O)NCc3ccccc3)C2)c1 (stereo not drawn)	u	-1.0%	i	1.4e-09	i
COc1cc(C(=O)Oc2c(CN3CCOCC3)cc(Cl)c3cccnc23)cc(OC)c1OC	10%	-2.8%	x	x	x
COc1ccccc1NC(=O)CNC(=O)c1ccc(F)cc1	x	0.5%	i	2.6e-09	i
O=C(Nc1ccccc1C(=O)N1CCOCC1)c1ccncc1	3%	-0.6%	x	x	x
Cc1ccc(C)c(-n2c(SCC(N)=O)nnc2-c2ccccn2)c1	0%	0.8%	i	2e-09	i
CCOC(=O)C1=C(N)N(c2ccc(N3CCCCC3)cc2)C(=O)C1	u	-2.4%	i	1.7e-09	i
CCOc1cccc(-c2nn3c(-c4ccccn4)nnc3s2)c1	x	x	i	1e-09	i
Cc1[nH]c2ccccc2c1-c1cc(-c2cc(-c3c(C)[nH]c4ccccc34)on2)no1	3%[11.4 µM]	-0.3%[11.5 µM]	i	1.1e-08	i
CN(C(=O)c1ccncc1)C1CC(C)(C)N(O)C(C)(C)C1	3%	1.8%	i	1e-09	i
CC1CCCCC12NC(=O)N(Cn1nnc3ccccc3c1=O)C2=O (stereo not drawn)	-3%	-0.4%	i	2.6e-08	i
CCCCn1nc(CC(=O)O)c2ccccc2c1=O	5%	2.2%	i	1e-09	i
COc1nc(C#N)c(N2CCOCC2)o1	6%	-3.0%	i	4.3e-08	i
CCCCCCOc1ccc(OCC(O)CN2C(=O)NC(C)(C)C2=O)cc1 (stereo not drawn)	21%	-1.3%	i	2.8e-09	i
Cn1c(=O)c2c(nc(-n3ccnc3)n2Cc2ccc(Cl)cc2Cl)n(C)c1=O	u	-1.8%	x	x	x
COc1ccccc1Nc1nc(N)nc(CN2CCOCC2)n1	-6%	2.4%	x	x	x
NC(=O)c1cccc(S(=O)(=O)N2CC(c3ccccc3)CC2=O)c1 (stereo not drawn)	-2%	0.0%	x	x	x
Cc1occc1C(=O)Nc1nn[nH]n1	3%	0.3%	i	1e-09	i
Cc1nc(C)n(C(C)CC(=O)O)n1 (stereo not drawn)	1%	1.1%	i	3.9e-08	i
Cc1[nH]c2ccc(F)cc2c(=O)c1SC(F)(F)C(F)F	-2%[11.4 µM]	1.8%	i	1.8e-08	i
CCCn1c(=O)c(C(=O)NCc2cccnc2)c(O)c2ccccc21	9%	12%	x	x	x
COc1ccc(C(=O)OCCN2CCOCC2)cc1OC	12%	-0.8%	i	4.2e-09	i
Oc1ccc(N=Cc2ccc(O)c(O)c2)cc1	-13%	3.1%	x	x	x

(next part)
SMILES	TSHR agonist	AID923	A488 fluor	A647 fluor	Resorufin fluor
COc1cccc(NC(=O)n2nc(N)cc2-c2ccc(Cl)cc2)c1	-11%	-1.0%	x	x	x
Cc1ccc2c(c1)N(CC(=O)N1CCCCCC1)C(=O)CO2	0%	0.8%	i	2.8e-08	i
CC1CCC2(CC1)NC(=O)N(Cc1nc(-c3ccccc3)no1)C2=O (stereo not drawn)	22%	0.2%	i	5.7e-09	i
CCC(=O)Nn1c(C)nnc1C	6%	3.6%	i	1.9e-09	i
CCC(Sc1nncn1C)C(=O)Nc1nnc(-c2ccc(Cl)cc2)s1 (stereo not drawn)	-11%	0.8%	x	x	x
O=c1c2ccccc2nnn1CSc1nnc(Nc2ccccc2)s1	18%	-1.1%	i	6.6e-09	i
CCCNC(=O)c1cc(SC)ccc1Cl	3%	0.5%	i	2e-08	i
Cc1ccc(C)c(NC(=O)CN(C)S(=O)(=O)c2ccc(F)cc2)c1	-1%	0.6%	i	2.7e-08	i
Cc1ccnc(SCCn2c(N3CCC(C)CC3)nc3c2c(=O)n(C)c(=O)n3C)n1	28%	-2.6%	i	6.1e-09	i
O=C(NC1CCCCC1)c1ccc(Cn2cc(Br)cn2)o1	11%	2.0%	i	1.3e-08	i
O=C(c1cc(N2CCCCC2)nc2ccccc12)N1CCOCC1	x	x	i	1e-09	i
Cc1nc(-c2ccc(NS(C)(=O)=O)cc2)cs1	-5%	-0.5%	i	1e-09	i
O=C(CSc1nn(-c2ccc(Cl)cc2)c(=S)s1)N1CCN(C(=O)c2ccco2)CC1	u	0.6%	i	1.2e-08	i
Cn1c(Cn2c(=O)sc3ccccc32)nnc1SCC(=O)Nc1cccc(Cl)c1	u	0.8%	x	x	x
COC(=O)COc1cccc(-n2cnnn2)c1	-7%	0.3%	i	3e-08	i
C=CCN1CCN(C(CC(C)C)c2nnnn2CCOC)CC1 (stereo not drawn)	u	0.2%	i	1.5e-08	i
COc1cccc(C(=O)n2cnnc2N)c1OC	0%	0.4%	i	2.3e-08	i
Cc1ccc2c(CNCc3ccco3)cc(=O)oc2c1	6%	1.2%	i	2.4e-09	i
COC(=O)Cc1c(C)nc2nc(-c3ccco3)[nH]n2c1=O	-3%	0.0%	i	1.7e-08	i
Cn1c(Cn2c(=O)sc3ccccc32)nnc1SCC(=O)Nc1cccc(F)c1	6%	2.2%	x	x	x
CCOC(=O)NC(=O)CN1C(=O)NC(C)(c2ccccc2)C1=O (stereo not drawn)	-4%[11.4 µM]	-1.3%	i	1e-09	i
O=C1CCCC=C1[C@H](O)c1ccc([N+](=O)[O-])cc1	-10%[11.4 µM]	0.6%[11.5 µM]	x	x	x
O=C(Nc1ccc(F)cc1F)N1CCN(C/C=C/c2ccccc2)CC1	0%	0.7%	x	x	x
CCN(CC)C[C@@H](O)c1ccc2ccc3ccccc3c2c1	8%[11.4 µM]	3.4%[11.5 µM]	i	8.5e-09	i
Cc1noc(C)c1-c1cncnc1Nc1ccccc1	3%	-0.4%	i	1e-09	i
Cc1coc(NC(=O)CSc2nc(-c3ccncc3)cc(C(F)(F)F)c2C#N)n1	-18%	2.9%	i	4.9e-09	i
COc1cc(NC(=O)C23CC4CC(C2)CC(n2nnc(C)n2)(C4)C3)c(OC)cc1Cl	3%[11.4 µM]	0.6%	i	1.5e-09	i

Whole records from above. Order of values: TSHR agonist | AID923 | A488 fluor | A647 fluor | Resorufin fluor
Cc1coc(NC(=O)CSc2nc(-c3ccncc3)cc(C(F)(F)F)c2C#N)n1 is entered as -18% | 2.9% | i | 4.9e-09 | i
O=C1CCCC=C1[C@H](O)c1ccc([N+](=O)[O-])cc1 is entered as -10%[11.4 µM] | 0.6%[11.5 µM] | x | x | x
Cc1noc(C)c1-c1cncnc1Nc1ccccc1 is entered as 3% | -0.4% | i | 1e-09 | i
COc1cc(NC(=O)C23CC4CC(C2)CC(n2nnc(C)n2)(C4)C3)c(OC)cc1Cl is entered as 3%[11.4 µM] | 0.6% | i | 1.5e-09 | i
